T cruzi inh: T. cruzi replication inhibition; actives 1.4% (n = 300,000); inhibition, % (concentration not given with the values); T. cruzi beta-gal in NIH3T3, luminescence, 90 h;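 active means mean inhibition across valid replicates above about 55%, limit read from the data; inconclusive means mean below that limit but half or more replicates reach it; inactive means mean below it, under half of replicates reach it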;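 further: signal also drops with host cell toxicity which is not excluded here; 0% = plate median of DMSO wells and 100% = zero luminescence signal; higher percent means less beta-gal luminescence so fewer parasites; stock transfer was 50 nL into about 50 µL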
Beta apoptosis: blocks beta cell apoptosis | INS-1E cytokine-induced death, ATP luminescence, 48 h; percent of positive-control rescue, neutral wells zero | protection from apoptosis, % (test concentration not listed) | actives 0.8% (n = 300,000) | AID 435005;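 active means all replicates at 75% or more, or half of them and the mean; inconclusive means half reach 75% but not the mean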;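 further: 0% = cytokine-treated negative control wells and 100% = positive control rescue; higher means more ATP so stronger rescue from cytokine killing; wells of about 40 µL received 100 nL stock; the first replicate is given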
AF4-AF9 inh: MLL-AF4/AF9 protein interaction inhibition | P42568 | AlphaScreen, biotin-AF4 peptide binding to FLAG-AF9 | inhibition, % at 10 µM | actives 0.47% (n = 350,000);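 active means every replicate reaching a set inhibition limit, whatever the replicate mean, cut at about 25% in these data; inconclusive means mean inhibition reaches that limit but some replicates miss it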;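 further: 0% = plate neutral control median and 100% = total signal loss; the record names both 10 and 1 µM as test concentration; the first replicate is given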
Target sequence (P42568 whole entry, looked up): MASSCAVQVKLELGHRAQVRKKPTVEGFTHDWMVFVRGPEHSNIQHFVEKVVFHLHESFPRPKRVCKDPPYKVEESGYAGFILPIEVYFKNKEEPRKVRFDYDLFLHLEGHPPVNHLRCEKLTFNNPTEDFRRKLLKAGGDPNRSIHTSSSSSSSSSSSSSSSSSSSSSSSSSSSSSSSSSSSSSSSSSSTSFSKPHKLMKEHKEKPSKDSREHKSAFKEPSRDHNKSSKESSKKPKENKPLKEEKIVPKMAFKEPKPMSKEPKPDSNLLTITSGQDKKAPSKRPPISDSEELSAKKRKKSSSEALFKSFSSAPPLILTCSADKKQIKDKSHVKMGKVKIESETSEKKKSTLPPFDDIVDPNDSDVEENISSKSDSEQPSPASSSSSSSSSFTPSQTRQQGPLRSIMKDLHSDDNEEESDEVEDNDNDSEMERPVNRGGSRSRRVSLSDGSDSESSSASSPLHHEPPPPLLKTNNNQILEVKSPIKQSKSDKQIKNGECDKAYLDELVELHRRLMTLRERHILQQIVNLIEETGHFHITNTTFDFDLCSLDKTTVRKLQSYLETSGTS
Calb FLC: affects C. albicans growth with fluconazole | C. albicans CaCi-2 (fluconazole-resistant clinical isolate) + fluconazole, Alamar Blue growth, 48 h | actives 0.57% (n = 300,000) | growth inhibition, % (no concentration beside the values);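 active means most replicates above 75%; inconclusive means exactly half above 75%; inactive means most below 75%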;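 further: all wells also contain fluconazole at 8 µg/ml as a sub-toxic cotreatment; 0% = median of DMSO wells and 100% = median of geldanamycin control wells; wells of about 8 µL received 7.5 nL stock; the first replicate is given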
A1 inh: inhibitors of the anti-apoptotic protein A1, read as caspase activation; MEF A1-2A-BIM cells, Caspase-Glo 3/7 luminescence, 3 h; percent of clofoctol response, vehicle zero; caspase activation, % (test concentration not listed); actives 0.066% (n = 330,000); AID 2462;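 active means over half of replicate activation scores above 10%, or exactly half above 10 with the replicate mean above 10; inconclusive means replicate mean below 10 yet half the replicates above 10; inactive means over half of replicates below 10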;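 further: wells of about 30 µL received 50 nL stock; many hits fall short of the cut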
Vif TR-FRET: inhibitors of Vif binding to APOBEC3G peptide, primary screen, biochemical, TR-FRET, GST-Vif 1-94, biotin-A3G peptide, dose response retest (AID 1117319) | TR-FRET GST-Vif / biotin-A3G peptide binding; higher % means a stronger effect; test concentration not given here; strong numbers were not always called active | inhibition, %; hits with a dose series show IC50 in µM | actives 0.57% (n = 260,000);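 active means above the screen mean plus three standard deviations and confirmed in dose response; inconclusive means results disagree or hit not tested in dose response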;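 further: Vif residues 1-94 fused to GST binding biotinylated APOBEC3G peptide 110-148; 0% = full assay without inhibitor and 100% = GST in place of GST-Vif; retest series ran down from 100 µM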
RanGTP-Imp inh: disruptors of Ran-importin-beta complex formation – biochemical, FRET, CFP-Ran, YFP-importin-beta, homogeneous, primary screen. AID 2216. cell-free CFP-Ran/YFP-importin-beta FRET ratio. actives 1.1% (n = 300,000). inhibition, % (test concentration not listed);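 active means most replicates above 15%; inconclusive means exactly half above 15%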;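 further: 0% = DMSO wells and 100% = Ran loaded with GDP instead of GTP; wells of about 40 µL received 100 nL stock; the first replicate is given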
Ecoli rRNA inh: inhibits bacterial ribosomal RNA function over humanized ribosomes; E. coli WT GFP vs humanized-ribosome RFP mutants, fluorescence, 24 h; stronger effect = lower value; DMSO median 0, no signal -100; GFP signal change (wild-type ribosome), % (test concentration not listed); actives 1.6% (n = 350,000);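 active means significant combined selectivity score with lowered wild-type GFP, culture density cut under 30%, mutant RFP and density less affected; inactive means any of these conditions unmet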; further: one replicate is shown; some compounds called inactive have numbers as strong as hits
Ecoli rRNA inh OD600: also measured in Ecoli rRNA inh; calls as there; OD600 change, %; measured here: OD600 growth;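 optical density of the mix in the first replicate; 0 = DMSO median and -100 = no signal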
Ecoli rRNA inh RFP: further read-out of Ecoli rRNA inh, marked with its call; RFP signal change, %; measured here: RFP humanized mutant strains;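 first replicate; 0 = DMSO median and -100 = no signal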
* marks the source's active call; other numbers are inactive results; ? = inconclusive; · = no result given.

SMILES | T cruzi inh | Beta apoptosis | AF4-AF9 inh | Calb FLC | A1 inh | Vif TR-FRET | RanGTP-Imp inh | Ecoli rRNA inh | Ecoli rRNA inh OD600 | Ecoli rRNA inh RFP
NC(=O)c1nsc(C(=O)N(c2ccccc2)C(C(=O)NC2CCCC2)c2cccs2)c1N (stereo unspecified) | 8 | 2 | -3.3 | 5 | -0.2 | · | 4.3 | 4 | 14 | -2.5
COc1ccccc1NC(=S)N(CCc1ccc(OC)c(OC)c1)Cc1ccccn1 | -6 | -2 | 7.4 | -6 | 0.5 | -1% | 1.3 | -7 | -17 | 0.7
COc1cc(S(=O)(=O)Nc2ccc3c(c2)C(=O)N(C)C3=O)ccc1NC(C)=O | · | -3 | -1.5 | · | -0.8 | -1% | · | 6 | 12 | 2.1
COc1ccc(-n2cc(-c3ccc(OC(F)F)cc3)[n+]3c2CCCCC3)cc1 | 59* | 103* | 0.3 | -23 | -0.5 | -2% | -2.9 | -2 | -1 | 0.6
Cc1ccc(Cl)cc1N1CCN(S(=O)(=O)c2ccc3c(c2)CC(=O)N3C)CC1 | 21 | 0 | -2.3 | 38 | -0.7 | · | 2.4 | 4 | -5 | 0.1
COc1ccc(-c2nc(N)ncc2Oc2ccccc2Br)c(O)c1 | 13 | -2 | · | -6 | 0.6 | -39% | 3.5 | · | · | ·
COc1ccc(S(=O)(=O)Nc2c(C)n(C)n(-c3ccccc3)c2=O)c(Cl)c1Cl | 2 | 8 | 0.3 | -5 | 0.7 | 5% | -3.0 | 6 | 8 | -3.5
COc1cccc(N(C(=O)c2cnccn2)C(C(=O)NC2CCCCC2)c2ccc(Cl)cc2)c1 (stereo unspecified) | 4 | -2 | · | 37 | 1.4 | 14% | 3.0 | · | · | ·
COc1ccc(C(=O)C[n+]2ccc3c(c2)nc(-c2ccccc2)n3C)cc1 | -13 | 0 | · | -23 | -0.2 | ? | 1.8 | · | · | ·
Cc1cccc(C)c1NC(=S)N/N=C/c1ccccc1C(=O)O | -3 | 1 | -17 | 0 | -0.9 | · | -1.1 | 8 | 13 | -5.0
CC1CCCCC1NC(=O)Cc1ccc(S(=O)(=O)N2CCOCC2)s1 (stereo unspecified) | -7 | · | 2.8 | 15 | -0.5 | -1% | -2.1 | 7 | -1 | 2.3
O=C(N/N=C/c1cccnc1)c1ccc(Cn2cc([N+](=O)[O-])cn2)o1 | -13 | -1 | 1.4 | -4 | 0.8 | 7% | 12 | 17 | 10 | 5.4
O=C(CSc1ccccn1)N1CCN(S(=O)(=O)c2ccc(Cl)cc2)CC1 | -3 | 0 | -0.5 | -4 | 0.7 | -1% | -1.5 | -5 | 3 | 2.5
CC1(C)OC(=O)C(=CNC(=O)c2c(F)cccc2F)C(=O)O1 | -20 | -5 | -0.9 | 11 | -0.3 | 8% | -3.1 | 14 | 3 | 0.2
CCCOP(=O)(c1ccc(N(C)C)cc1)C(O)c1ccc(Br)cc1 (stereo unspecified) | 0 | 0 | -2.0 | 28 | 1.1 | · | 7.3 | 0 | -10 | -1.8

An excerpt from above, reduced to Vif TR-FRET and RanGTP-Imp inh:
SMILES | Vif TR-FRET | RanGTP-Imp inh
COc1cc(S(=O)(=O)Nc2ccc3c(c2)C(=O)N(C)C3=O)ccc1NC(C)=O | -1% | ·
COc1cccc(N(C(=O)c2cnccn2)C(C(=O)NC2CCCCC2)c2ccc(Cl)cc2)c1 (stereo unspecified) | 14% | 3.0
CCCOP(=O)(c1ccc(N(C)C)cc1)C(O)c1ccc(Br)cc1 (stereo unspecified) | · | 7.3
CC1(C)OC(=O)C(=CNC(=O)c2c(F)cccc2F)C(=O)O1 | 8% | -3.1
NC(=O)c1nsc(C(=O)N(c2ccccc2)C(C(=O)NC2CCCC2)c2cccs2)c1N (stereo unspecified) | · | 4.3
CC1CCCCC1NC(=O)Cc1ccc(S(=O)(=O)N2CCOCC2)s1 (stereo unspecified) | -1% | -2.1

More records:
SMILES | T cruzi inh | Beta apoptosis | AF4-AF9 inh | Calb FLC | A1 inh | Vif TR-FRET | RanGTP-Imp inh | Ecoli rRNA inh | Ecoli rRNA inh OD600 | Ecoli rRNA inh RFP
CCC(NC(=O)C1C2C=CC(C2)C1C(=O)O)c1ccc(C)cc1 (stereo unspecified) | -5 | -1 | -6.5 | -4 | 0.8 | · | 3.3 | 17 | 9 | 0.3
COc1ccc(C(=O)NCC(C)(C)CNC(=O)c2ccc(OC)cc2)cc1 | -2 | -10 | 0.8 | 1 | 0.3 | · | -1.2 | -14 | -11 | 0.4
Cc1cccc(C2=NC(C(F)(F)F)(C(F)(F)F)c3c(n(-c4ccc(F)cc4)c(=O)[nH]c3=O)N2)c1 | -9 | 53 | -7.7 | -3 | -0.8 | -12% | 0.2 | 4 | 1 | -0.2
CN(C1CC(C)(C)NC(C)(C)C1)S(=O)(=O)CC12CCC(CC1=O)C2(C)C (stereo unspecified) | -14 | -1 | -0.8 | 3 | 1.0 | ? | 3.1 | 2 | 6 | -4.4
CC(NC(=O)CNC(=S)N(Cc1ccccc1)Cc1cccnc1)c1ccccc1 (stereo unspecified) | 55* | -2 | -1.6 | 4 | 0.5 | 11% | 1.7 | -17 | -18 | -2.5
O=C(Oc1ccc(-c2ccccc2)cc1)N1CCOCC1 | 4 | 4 | · | -36 | ? | -9% | -1.4 | · | · | ·
Cc1ccc(NC(C)C(=O)N/N=C/c2c[nH]c3ccccc23)cc1 (stereo unspecified) | -10 | -5 | 4.8 | -5 | 0.0 | 1% | 7.1 | 4 | 5 | 1.1
O=C(NC(=S)Nc1ccc(S(=O)(=O)N2CCCC2)cc1)c1cccs1 | -10 | -8 | 3.4 | -9 | 0.1 | · | 0.2 | 1 | -7 | 0.5
COC(=O)C1=CN(c2cccc(Cl)c2)C=C(C(=O)OC)C1c1cccc(OC)c1 | 33 | 3 | -6.9 | 13 | -0.7 | · | -1.2 | 0 | 6 | 4.5
COc1ccc(N(CC(=O)NC2CCCCC2)C(=O)c2snc(C(N)=O)c2N)cc1 | -2 | 1 | -1.0 | -14 | 0.3 | -15% | 3.3 | 12 | 8 | -0.5
Cc1cc(C(F)F)n2ncc(C(=O)NCc3ccccc3C(F)(F)F)c2n1 | 17 | -6 | · | -2 | -0.6 | 71% | 1.2 | · | · | ·
C=CCOc1cccc(C(=O)N2CCCC(Nc3ccc4c(c3)OCCO4)C2)c1 (stereo unspecified) | 6 | 0 | 2.1 | -4 | -0.7 | 7% | -1.5 | 1 | -5 | 1.3
Cc1ccc(CCN2CC(C(=O)NCCCOC(C)C)CC2=O)cc1 (stereo unspecified) | 6 | 3 | -0.4 | -12 | 0.3 | -1% | ? | 1 | -4 | -6.2
CCn1c2ccccc2c2cc(NC(=O)c3ccc(=O)oc3)ccc21 | 17 | -8 | -2.8 | 3 | -0.9 | 13% | 0.5 | 8 | 10 | 2.6
COc1ccc2[nH]c(C(=O)N3CCCN(Cc4ccc(F)cc4)CC3)cc2c1 | 60* | -1 | 4.7 | 3 | -0.7 | 3% | -0.6 | -10 | -5 | 1.9
C/C(CC(=O)Nc1ccccc1F)=N\NC(=O)Cc1ccc(Cl)cc1 | -1 | -4 | -14 | -3 | -0.1 | -5% | -6.0 | -8 | -4 | -1.7
Cc1nn(C)c(Cl)c1NC(=O)OCc1ccc(F)cc1 | -21 | -6 | · | 0 | -0.2 | -2% | 1.1 | · | · | ·
COc1cc(C(=O)OCC(=O)Nc2c(C)n(C)n(-c3ccccc3)c2=O)c([N+](=O)[O-])cc1OC | · | -4 | -0.1 | · | -0.6 | 9% | · | 5 | 4 | -2.1
Cc1sc2ncnc(N3CCC(C(=O)N(CC(C)C)c4nc5ccccc5s4)CC3)c2c1C | 32 | 11 | 6.8 | 0 | 0.1 | -22% | 1.5 | 8 | 11 | 5.7
Cc1ccc(NS(=O)(=O)c2ccc(C(=O)NCc3ccccn3)cc2)cc1 | -7 | 3 | -0.4 | -4 | 0.7 | -3% | -2.7 | 5 | 3 | -0.1
Cn1nnnc1SCc1ccc([N+](=O)[O-])cc1 | -15 | · | · | 19 | -0.4 | · | 1.8 | · | · | ·
Cc1ccc(S(=O)(=O)N(CC(=O)N/N=C/c2ccc(F)cc2)c2cccc3cccnc23)cc1 | 4 | 8 | · | -4 | 1.8 | -1% | 2.4 | · | · | ·
COc1ccc(C(C)(C)C)cc1NC(=O)c1ccc2ncsc2c1 | 19 | -3 | 0.4 | -12 | 2.3 | · | -3.9 | -13 | -34 | 2.9
COCCn1c(SC(C)C(=O)NC2CC2)nnc1-c1cccc(C)c1 (stereo unspecified) | -3 | · | -6.6 | -1 | 0.0 | 9% | -0.4 | 9 | 13 | 4.0
Cc1ccc(S(=O)(=O)NC(=NCc2ccccc2)c2ccc(F)cc2)cc1 | -15 | 2 | 0.6 | 3 | -0.8 | -1% | 9.0 | 7 | 4 | 8.4
O=C(COc1ccccc1Cl)NNC(=O)c1ccc2c(=O)n3c(nc2c1)CCC3 | · | 3 | -9.3 | · | -1.0 | · | · | -5 | -1 | -0.6
CCN(C[C@H]1N[C@@](Cc2ccccc2)(C(=O)OC)[C@H]2C(=O)N(C)C(=O)[C@@H]12)C(=O)Nc1ccc(Cl)cc1 | · | -5 | -0.8 | · | 0.3 | -5% | · | -26 | -49 | 0.1
CCCC[C@H]1COCCS(=O)(=O)N1Cc1ccccc1F | -6 | 4 | -15 | 4 | 0.2 | · | 6.8 | -17 | -6 | -5.7
CCC(C)[C@H](N)c1nnc(SCC(=O)Nc2cccc(Cl)c2)o1 (stereo partly specified) | -3 | -5 | · | -3 | -1.2 | 10% | 0.9 | · | · | ·
COc1ccc2[nH]c3c(=O)n(CCCCC(=O)NCCN4CCCC4)c(=S)[nH]c3c2c1 | 0 | -3 | 10 | 10 | 0.1 | 4% | 0.0 | -29* | 6.5* | -4.1*
COc1cccc(NC(=O)C(OC(=O)c2cnc(C)cn2)c2ccccc2)c1 (stereo unspecified) | -8 | · | -1.5 | -5 | 0.5 | 2% | ? | 5 | 10 | 0.5
CCS(=O)(=O)N1CCN(S(=O)(=O)c2ccc3ccccc3c2)CC1 | 1 | -2 | 1.2 | 1 | 2.6 | · | 4.8 | 7 | 7 | -1.2

Complete entries, quoted from the list. Screens in order: T cruzi inh, Beta apoptosis, AF4-AF9 inh, Calb FLC, A1 inh, Vif TR-FRET, RanGTP-Imp inh, Ecoli rRNA inh, Ecoli rRNA inh OD600, Ecoli rRNA inh RFP
CCN(C[C@H]1N[C@@](Cc2ccccc2)(C(=O)OC)[C@H]2C(=O)N(C)C(=O)[C@@H]12)C(=O)Nc1ccc(Cl)cc1 is entered as ·, -5, -0.8, ·, 0.3, -5%, ·, -26, -49, 0.1
Cc1ccc(S(=O)(=O)N(CC(=O)N/N=C/c2ccc(F)cc2)c2cccc3cccnc23)cc1 is entered as 4, 8, ·, -4, 1.8, -1%, 2.4, ·, ·, ·

The list is partial. The share of hits here may be higher or lower than overall.
